Screens from PubChem BioAssay.
StopGo reporter: lowers the luciferase signal of an FMDV 2A StopGo reporter. human cells with a luciferase reporter of 2A StopGo recoding; control for the full effect not named in the record. Potency, µM (top dose mostly 57.9 µM), for the others: at the highest dose signal change, negative = less light. hit rate 1.2% among 410,000; active = well fitted falling curve with a large enough effect; inconclusive = small, poorly fitted or top-dose-only effect; inactive = no such curve, though single readings can be large or run the other way; tested in HEK293T cells; note: % is set by controls: 0 for no effect and ±100 for the full control effect; nearly all actives have a fitted effect of over 45% in size; luciferase light after 4 h
Cruzain Triton: blocks cruzain activity in presence of Triton detergent | purified cruzain, Z-FR-AMC fluorescence, 0.01% Triton | P25779 | hit rate 0.43% among 200,000 | Potency, µM, inactives show max response, negative = inhibition, usual class: inhibitors | AID 1478;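 note: plate controls were neutral wells for no effect and buffer without enzyme for full effect; nearly all actives have a fitted effect of over 40% in size; top concentration of the series not given in the record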
Target sequence (P25779 123-467 limits assumed): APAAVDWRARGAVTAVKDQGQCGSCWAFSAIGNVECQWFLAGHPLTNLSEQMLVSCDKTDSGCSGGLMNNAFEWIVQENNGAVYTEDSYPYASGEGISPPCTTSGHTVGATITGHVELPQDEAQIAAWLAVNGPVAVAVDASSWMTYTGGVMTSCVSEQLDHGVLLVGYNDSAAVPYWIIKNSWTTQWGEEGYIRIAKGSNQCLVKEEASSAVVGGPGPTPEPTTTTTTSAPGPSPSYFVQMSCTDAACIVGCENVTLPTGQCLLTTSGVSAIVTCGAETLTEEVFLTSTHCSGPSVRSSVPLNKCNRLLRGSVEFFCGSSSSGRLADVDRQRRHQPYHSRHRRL
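Detergent-containing run (0.01% Triton X-100) in acetate buffer pH 5.5 with 5 mM DTT: enzyme at 1.5 nM final, 15 min compound preincubation at room temperature, then 2 uM Z-FR-AMC substrate. Activity taken as 60 s fluorescence increase at 360/450 nm.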
RE007 growth inh: less growth of the S. pombe RE007 Vpr strain; Potency, µM (top dose mostly 92.2 µM), without a hit: at the highest dose activity change, negative = less growth; hit rate 0.21% among 360,000; AID 651644; S. pombe RE007 Vpr strain, BacTiter-Glo ATP luminescence, 24 h; control for the full effect not named in the record; active = well fitted falling curve with a large enough effect; inconclusive = small, poorly fitted or top-dose-only effect; inactive = no such curve, though single readings can be large or run the other way;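 note: % is set by controls: 0 for no effect and ±100 for the full control effect; nearly all actives have a fitted effect of over 50% in size; the assay follows cell death caused by Vpr and the record does not say whether a fall means rescue or toxicity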
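Fission yeast strain RE007, carrying one chromosomally integrated HIV-1 vpr copy, was seeded at OD 0.01 in PMG+AL medium with 23 nL pinned compound. After 24 h at 30 °C and 99% humidity, viability was read by BacTiter-Glo luminescence.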
SARS PLP yeast: blocks SARS-CoV papain-like protease in a yeast assay; S. cerevisiae expressing SARS-CoV PLpro, growth rescue; control for the full effect not named in the record; Potency, µM (titrated, usually from 32.9 µM), for the others: at the highest dose activity, positive = growth rescue; hit rate 0.19% among 330,000; active means well fitted rising curve with a large enough effect; inconclusive means small, poorly fitted or top-dose-only effect; inactive means no such curve, though single readings can be large or run the other way; note: 0% is about no effect; nearly all actives have a fitted effect of over 55% in size; growth read by luminescence after 48 h
Cruzain inh noDet: inhibitors of Trypanosoma cruzi cruzain without detergent; P25779; purified cruzain, Z-FR-AMC fluorescence, no detergent; Potency, µM, for the others: max response, negative = inhibition, hits mostly inhibitors; hit rate 2.3% among 200,000;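 note: plate controls were enzyme without inhibitor for no effect and buffer without enzyme for full effect; nearly all actives have a fitted effect of over 40% in size; top concentration of the series not given in the record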
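Detergent-free condition (0.00005% Triton X-100) in acetate buffer pH 5.5 with DTT. 1.5 nM enzyme and compound were pre-mixed 15 min, then 2 uM Z-FR-AMC substrate added; reaction progress from fluorescence change between first and third reads (60 s).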
Lassa entry inh: Lassa virus entry inhibition; Lassa virus pseudotype entry inhibition, cell reporter; control for the full effect not named in the record; Potency, µM (series often up to 37.9 µM), for inactives: at the top dose activity change, negative = inhibition, actives largely listed as inhibitors; hit rate 1.2% among 300,000; active means well fitted inhibition curve with a large enough effect; inconclusive means small, poorly fitted or top-dose-only effect, or effect the other way; inactive means flat fitted curve, though single readings scatter; tested in HEK293 cells; note: % is set by controls: 0 for no effect and ±100 for the full control effect; nearly all actives have a fitted effect of over 50% in size; luciferase read-out
MARV entry inh: blocks Marburg virus binding to or entry into cells; Marburg virus pseudotyped entry inhibition, cell reporter; control for the full effect not named in the record; about a third of the inactives were read at about 46 µM; Potency, µM (top dose mostly 37.8 µM), for inactives: at the highest dose activity change, negative = inhibition, most hits filed as inhibitors; hit rate 1.8% among 300,000; AID 540276; active = well fitted inhibition curve with a large enough effect; inconclusive = small, poorly fitted or top-dose-only effect, or effect the other way; inactive = flat fitted curve, though single readings scatter; tested in HEK293 cells; about a fifth of its hits are not listed in these tables; note: % is set by controls: 0 for no effect and ±100 for the full control effect; luciferase read-out
NS1 inh: influenza NS1 inhibition; Potency, µM (series often up to 46.1 µM), for the others: at the top dose activity, positive = more growth; hit rate 0.4% among 270,000; S. cerevisiae slowed by influenza A NS1, growth recovery by OD600; active means well fitted rising curve with a large enough effect; inconclusive means small, poorly fitted or top-dose-only effect; inactive means no such curve, though single readings can be large or run the other way; note: nearly all actives have a fitted effect of over 50% in size
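Compounds were scored for reversing the slow growth caused by influenza A NS1 in S. cerevisiae, measured by optical density at 600 nm. Assay medium contained 2% galactose at pH 6.0; NS1-free yeast of the same strain were the positive control.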
* = called active by the depositor; ? = inconclusive; · = no result given; [ ] = remark or other dose. Unless noted, calls come from the whole dose curve; as a rule, active = well fitted curve in the direction sought with a large enough effect; inconclusive = small, poorly fitted or top-dose-only effect, or another doubt; inactive = no such curve, though single readings can be large; an effect the other way counts as inactive or inconclusive. Potency is the fitted concentration of half-maximal effect.

canonical_smiles | StopGo reporter | Cruzain Triton | RE007 growth inh | SARS PLP yeast | Cruzain inh noDet | Lassa entry inh | MARV entry inh | NS1 inh
COc1ccc(C2=Nn3c(nnc3-c3ccncc3)SC2)cc1 | 4% | 0.4% | 1% | 5% | -21% | -19% | ? | -8%
Cc1nc(-c2ccc(Cl)cc2)sc1C1(C)CC(c2cccc(F)c2)=NO1 (stereo not drawn) | 58%[activator] | · | 9% | -1% | · | · | · | -3%
O=C(O)Cc1ccc(C(=O)c2ccc(Cl)cc2Cl)s1 | 21% | · | 10% | 1% | · | 27%[46.1 µM] | ? | ·
Cc1ccc(C)c(NS(=O)(=O)c2ccc3[nH]c(=O)oc3c2)c1 | 8% | · | 1% | 0% | · | 8%[46.1 µM] | 6%[46.1 µM] | 0%
Cc1ccccc1OCC(=O)Nc1cccc2nsnc12 | 18% | -2.1% | -10% | 7% | -11% | 19% | -14% | 1%
COC(=O)CSc1nnc(CNC(=O)c2cccs2)n1-c1cc(OC)ccc1OC | 10% | 0.3% | -3% | 0% | -2% | -15% | 0% | 4%
O=C1NC(=O)C(=Cc2ccc(SC3CCCCC3)o2)C(=O)N1 | 18µM* | · | -11% | 3% | · | -28% | 15% | ·
CC(=O)c1cc(-c2ccccc2)n(CC(=O)Nc2cc(C)cc(C)c2)c1C | ? | -1.5% | -4% | 7% | -22% | -11% | ? | 9%
COCCn1c(SCc2ccc(OC)c(F)c2)nnc1-c1ccncc1 | -18% | · | 0% | 4% | · | 6%[46.1 µM] | 0%[46.1 µM] | 8%
O=C(Nc1ccccc1)N1CCC(=S)Nc2ccccc21 | -10% | -1.0% | 1% | 2% | 8% | 10% | ? | 10%
Cc1ccc(NC(=O)COC(=O)CN2C(=O)NC3(CCCC3)C2=O)cc1F | -10% | · | 2% | 3% | · | ? | -2% | ·
O=C(NNC(=S)Nc1ccccc1)c1ccccc1[N+](=O)[O-] | 42%[activator] | · | -2% | -1% | · | ? | 30%[46.1 µM] | -1%
COc1ccc(CCNC(=O)C2CCCN2C(=O)NC2CCCCC2)cc1OC (stereo not drawn) | 18% | 5.2% | 15% | -1% | 5% | 9% | -8%[46.1 µM] | -1%
COC(=O)C(=O)/C=C(\O)c1c(C)cc(C)cc1C | -15% | · | 0% | -2% | · | ? | 6%[46.1 µM] | -2%
Cc1ccc(-c2nnc(Nc3ccc4c(c3)nc(C)n4C)c3ccccc23)cc1 | · | -1.3% | -4% | 1% | 1% | ? | -1% | -12%
Brc1ccc(N=NNc2ccccc2)cc1 | 37%[activator] | · | -17% | 0% | · | 14%[46.1 µM] | ? | 0%
O=C(CSc1nc2c(c(=O)[nH]1)CCCC2)Nc1ccc(Cl)cc1F | -4% | 2.8% | -1% | -9% | ? | -30% | -16% | 1%
COCCCNS(=O)(=O)c1ccc2c(c1)CCN2C(C)=O | 50%[activator] | 3.6% | -12% | · | -1% | 8% | 3%[46.1 µM] | -3%
CCC(Br)C(=O)Nc1ccc(OC)cc1 (stereo not drawn) | 7% | · | -6% | -1% | · | -3%[46.1 µM] | 13%[46.1 µM] | ·
C#CCOCCOCCOCCNc1nc(N2CCOCC2)nc(N2CCN(C(=O)[C@H](CCCCN)n3cc([C@@H](N)CC(C)C)nn3)CC2)n1 | 13% | · | -4% | -2% | · | · | · | 1%
Cc1ccc(-c2cnn3c(N4CCOCC4)cc(C)nc23)cc1 | -17% | · | -13% | -1% | · | · | · | -4%
CC12CCC(C(=O)NCc3ccccc3)(OC1=O)C2(C)C (stereo not drawn) | 10% | 6.0% | 10% | -3% | 1% | 0% | ? | 2%
COc1ccc(C(CNC(=O)c2oc3ccc(F)cc3c2C)N2CCCCC2)cc1 (stereo not drawn) | ? | · | -14% | 4% | · | · | · | 8%
CCOCCCNC(=O)C(c1ccc(Cl)cc1)N(Cc1ccc2c(c1)OCO2)C(=O)c1ccccc1O (stereo not drawn) | 56%[activator] | -1.6% | · | · | ? | -2%[46.1 µM] | -23%[46.1 µM] | ·
CCOc1ccc2nc(N(CCN(CC)CC)C(=O)c3cccc([N+](=O)[O-])c3)sc2c1 | -5% | · | -4% | 2% | · | ? | ? | ·
O=C(O)CCN=C1CCCc2ccccc2N1 | 19% | 2.5% | 18% | 3% | -4% | 21% | 22% | -19%
COc1ccc(C(=O)COC(=O)c2ccc(OC)c(OC)c2)cc1OC | -14% | -0.7% | 6% | -3% | 22% | 27% | 9% | -10%
CCN(CC)S(=O)(=O)c1ccc(S(=O)(=O)Nc2c(C)nn(C)c2C)cc1 | ? | · | 1% | 2% | · | 5% | ? | ·
Cn1cc([N+](=O)[O-])c(C(=O)N/N=C/c2ccncc2)n1 | 7% | · | 1% | 2% | · | 5%[46.1 µM] | -12%[46.1 µM] | -8%
O=C(/C=C/Nc1ccc(F)cc1)c1cccs1 | 13µM* | · | -21% | · | · | ? | 11µM* | ·
Cc1ccc2c(c1C)NC(=O)C2(O)CC(=O)c1ccc2c(c1)OCO2 (stereo not drawn) | 0% | 1.1% | 13% | 7% | -5% | 28% | 2% | -3%
CC(C)(Oc1ccc(CCNC(=O)c2ccc(-c3ccccc3)o2)cc1)C(=O)O | 0% | -3.3% | 13% | -8% | 1% | 1% | -18% | 15%

In a second layout: entries from further up
O=C(Nc1ccccc1)N1CCC(=S)Nc2ccccc21
  StopGo reporter: -10%	Cruzain Triton: -1.0%	RE007 growth inh: 1%	SARS PLP yeast: 2%	Cruzain inh noDet: 8%	Lassa entry inh: 10%	MARV entry inh: ?	NS1 inh: 10%

Cc1ccc(NC(=O)COC(=O)CN2C(=O)NC3(CCCC3)C2=O)cc1F
  StopGo reporter: -10%	Cruzain Triton: ·	RE007 growth inh: 2%	SARS PLP yeast: 3%	Cruzain inh noDet: ·	Lassa entry inh: ?	MARV entry inh: -2%	NS1 inh: ·

Next section:
canonical_smiles | StopGo reporter | Cruzain Triton | RE007 growth inh | SARS PLP yeast | Cruzain inh noDet | Lassa entry inh | MARV entry inh | NS1 inh
CCOC(=O)N(Cc1ccccc1)C1CC1 | 16% | · | 12% | · | · | 3% | -16% | ·
O=C(c1cccc(F)c1)N1CCN(Cc2c[nH]c3ccccc23)CC1 | ? | 5.7% | 9% | 4% | 4% | 0% | -1%[46.1 µM] | -2%
Cc1ccc(S(=O)(=O)NCC(=O)NC2CC2)cc1 | -8% | · | -3% | -6% | · | 5%[46.1 µM] | 4%[46.1 µM] | 0%
CCC(=O)N1c2ccccc2CC1C(=O)NCc1ccc(N(C)C)cc1 (stereo not drawn) | -2% | -0.6% | · | · | 1% | 17%[46.1 µM] | · | ·
Cc1nnc(SCc2ccccc2Cl)n1CC1CCCO1 (stereo not drawn) | 2% | 4.6% | 8% | 1% | -7% | -5% | 3% | ?
CCC(c1nnc(SCC(=O)Nc2cccc(S(N)(=O)=O)c2)n1Cc1ccccc1)N(C)C (stereo not drawn) | 13% | · | -3% | 0% | · | · | · | -12%
Cc1oc(-c2cc(F)ccc2F)nc1CN(C)Cc1ccc2nccnc2c1 | -11% | · | -3% | -1% | · | 12% | -6%[46.1 µM] | -3%
Nc1nc(-c2ccccc2)nc2sc3c(c12)CCCC3 | -6% | -13% | · | -9% | -1% | ? | ? | -5%
Cc1nn(Cc2ccc(C(=O)Nc3ccccc3F)cc2)c(C)c1Cl | 4% | · | 0% | 1% | · | · | · | -12%
Cc1ccc(CN(C)C(=O)c2cc(COc3cccc(C(F)(F)F)c3)on2)o1 | -6% | · | -4% | -11% | · | · | · | -13%
COc1cccc(-c2noc(COc3cccc(C)c3C)n2)c1 | 35%[activator] | -7.9% | · | · | -22% | ? | -2%[46.1 µM] | ·
N#CC1=C2N=C(N)c3c(sc4c3CCCCC4)N2C2=C(C(=O)CCC2)C1c1ccccc1 (stereo not drawn) | -6% | -1.1% | -12% | 1% | 25µM* | -27% | ? | ?
CC1=C(C(=O)Nc2ccc(C)cc2C)C(c2ccc(C(=O)O)cc2)n2nc(SCc3ccccc3)nc2N1 (stereo not drawn) | 9% | -3.6% | · | · | -4% | 0%[46.1 µM] | 5%[46.1 µM] | ·
COc1ccccc1N(C)S(=O)(=O)c1ccc(C(=O)NC2CCCCCC2)cc1 | ? | · | 5% | 0% | · | ? | ? | -3%
COc1cccc(NC(=O)c2oc3ccccc3c2NC(=O)c2ccc(OC(C)C)cc2)c1 | 22% | -2.2% | · | · | ? | 10%[46.1 µM] | 17%[46.1 µM] | ·
O=C(Cc1ccc(Br)cc1)NC1CCCc2ccccc21 (stereo not drawn) | 8% | · | 31% | 1% | · | ? | ? | -3%
C=CCOc1c2ccc(C(=O)NCCc3ccc(C)cc3)cc2nn1C | -11% | 3.5% | 16% | 0% | -8% | · | · | -3%
Cc1ccc(CNC(=O)CCC2CCCN(Cc3c(C)nn(C(C)C)c3C)C2)o1 (stereo not drawn) | -9% | · | -3% | 0% | · | · | · | 7%
O=C(c1ccccc1)N1CCN(C(=O)c2ccccc2)c2ccccc21 | 35µM* | · | 28% | · | · | · | ? | ·
NC(=O)c1ccc(-c2ccc(Br)cc2)o1 | 48%[activator] | -3.8% | -11% | -28% | -10% | 25% | -26% | -64%
CCOC(=O)N1CCN(C(=O)c2ccc(C)c(S(=O)(=O)Nc3cccc(C)c3C)c2)CC1 | 15% | 0.2% | 6% | 1% | ? | 1% | -20% | -12%
Cc1cc(-c2ccccc2)n2nc(-c3ccccc3)cc2n1 | -14% | -9.6% | · | · | ? | 2%[46.1 µM] | 3%[46.1 µM] | ·
COC(=O)c1sc(SC)c(S(=O)(=O)C(C)C)c1N/N=C(\C#N)S(=O)(=O)c1ccccn1 | 0% | · | -13% | 1% | · | -3% | -4% | 2%
CC(C)Cc1nnc(NC(=O)CCNC(=O)c2ccco2)s1 | -12% | · | -11% | 2% | · | 1% | 12%[46.1 µM] | -1%
